# Bioassay records (PubChem BioAssay)
# GIV Gai3 FP: GIV-Galpha-i interaction inhibition; actives 0.42% (n = 210,000); Galpha-i3/FITC-GIV peptide fluorescence polarization, 90 min; active compounds read low; scaled: aluminum fluoride 0%, vehicle 100%; percent of control (FP), % (no concentration beside the values); P08753;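 active = replicate mean at 85% of control or lower, very high polarization wells dropped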;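 also: wells of about 15 µL received 100 nL stock; the first replicate is given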
# Target sequence (P08753 whole entry, looked up): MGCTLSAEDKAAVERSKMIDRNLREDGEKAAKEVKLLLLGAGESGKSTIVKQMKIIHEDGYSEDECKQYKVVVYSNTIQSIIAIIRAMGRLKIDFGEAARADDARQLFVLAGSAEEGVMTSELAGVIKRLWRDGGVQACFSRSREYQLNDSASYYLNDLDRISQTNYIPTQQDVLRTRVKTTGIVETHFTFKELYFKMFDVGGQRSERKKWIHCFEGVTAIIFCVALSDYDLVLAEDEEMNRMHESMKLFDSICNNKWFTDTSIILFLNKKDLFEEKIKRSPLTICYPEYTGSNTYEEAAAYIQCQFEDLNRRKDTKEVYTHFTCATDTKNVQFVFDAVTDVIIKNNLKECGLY
# Sa growth 42C: blocks Staphylococcus aureus growth | S. aureus RN4220 growth, OD600, 20 h, 42 °C; active compounds read low | relative growth, % (concentration not given with the values) | actives 0.53% (n = 170,000);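 active = growth at 42 °C up to 50% and 20 or more points under that at 30 °C, or under 10% at both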;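 also: 300 nL library stock went into each well; scaled to the means of positive and negative controls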
# HCMV UL50-53 inh: cytomegalovirus nuclear egress complex inhibition | HTRF UL50-UL53 interaction, normalized percent inhibition | inhibition, % (test concentration not listed) | actives 0.15% (n = 190,000) | AID 1918969;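 active = both replicates at 50% or more, plus weaker picks with an unusually low signal ratio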;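 also: stock transfer was 100 nL into about 20 µL; 0% = negative control wells and 100% = wells with untagged competitor protein; inactives centre near -12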
# Sa growth 42C second temp: recorded beside Sa growth 42C, whose call it bears; relative growth, %; measured here: growth at 30 °C;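 optical density after 20 h as mean of two plates; 100% = untreated growth and lower means inhibition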
# The depositor's hits bear a star; x = not tested or not shown. Not a hit list; about 0.8% have a hit in one of these screens.
1	O=C(CN1C(=O)/C(=C\c2ccccc2)SC1=S)Nc1ccc(F)c(Cl)c1
2	Cc1cc(C)n(-c2cccc(Cl)c2C#N)n1
3	CCC(Sc1nnc2c3ccccc3n(C(C)C)c2n1)C(=O)Nc1nc2ccccc2s1 (stereo not drawn)
4	N#CCS(=O)(=O)c1cc(Cl)ccc1Cl
5	CN(C(=O)c1ccc(N2C(=O)C(C)(C)CS2(=O)=O)cc1)C1CCS(=O)(=O)C1 (stereo not drawn)

Screen / compound no.	1	2	3	4	5
GIV Gai3 FP	97.5	102.6	111.0	x	100.0
Sa growth 42C	x	97.6	126.5	101.8	x
Sa growth 42C second temp	x	94.0	98.1	68.4	x
HCMV UL50-53 inh	-19.0	-28.8	-13.6	-12.3	-23.2

6	COCC(=O)N1CCC(c2nc3ccccc3[nH]2)CC1
7	O=C(NC1CCCC1)C1CCCCN1S(=O)(=O)c1ccc(Cl)cc1 (stereo not drawn)
8	O=C(CN1CCN(Cc2ccc(F)cc2Cl)S1(=O)=O)NC1CCCC1
9	N#Cc1c2c(c(N3CCCC3)[nH]c1=S)CCCC2
10	N#Cc1cc2c(nc1SCc1ccccc1Cl)CCCC2=O

Screen / compound no.	6	7	8	9	10
GIV Gai3 FP	99.1	102.3	99.8	89.7	107.9
Sa growth 42C	98.0	x	x	79.8	100.5
Sa growth 42C second temp	80.7	x	x	76.0	90.6
HCMV UL50-53 inh	3.1	-25.5	-17.1	x	2.1

11	N#Cc1c2c(c(N3CCCCC3)n3c1nc1ccccc13)CCCC2
12	CCOC(=O)Cc1ccc(NC(=O)NC(C)c2c(-n3cccc3)sc(C)c2C)cc1 (stereo not drawn)
13	CC(C)(C)C(=O)CC(Nc1ccccc1)c1ccc(Cl)cc1 (stereo not drawn)
14	COc1ccc(OCC(=O)Nc2nc3ccc(OC)cc3s2)cc1
15	O=S(=O)(NC(c1ccc(Cl)cc1)c1nnc(-c2ccccc2)o1)c1ccc(F)c(Cl)c1 (stereo not drawn)

Screen / compound no.	11	12	13	14	15
GIV Gai3 FP	101.1	95.9	99.7	101.3	106.2
Sa growth 42C	86.6	100.6	87.5	x	x
Sa growth 42C second temp	90.6	99.7	84.5	x	x
HCMV UL50-53 inh	-16.9	-22.7	-12.1	-19.0	-40.9

16	CCN(C(=O)CSc1nc2cc(C(=O)OC)ccc2c(=O)n1CCN1CCOCC1)c1cccc(C)c1
17	CCNC(=S)N1CCC(NC(=O)c2ccccc2)CC1
18	COC(=O)c1cc2c(ccc3ccccc32)oc1=O
19	C(#Cc1ccccc1)CN1CCOCC1
20	CCCc1cc(=O)oc2cc(C)c3c(C(C)(C)C)coc3c12

Screen / compound no.	16	17	18	19	20
GIV Gai3 FP	103.5	102.8	105.9	103.3	98.3
Sa growth 42C	100.9	89.1	84.1	107.5	98.5
Sa growth 42C second temp	86.6	107.7	74.2	86.1	84.5
HCMV UL50-53 inh	-28.5	29.1	-90.0	-8.9	-32.0

21	Clc1ccc(CCNc2ncnc3sccc23)cc1
22	O=C(Nc1ccccc1)C1CCCN1C1CCCCC1 (stereo not drawn)
23	CCCc1ccc(OC(=O)c2sc3ncn(Cc4cccc(F)c4)c(=O)c3c2C)cc1
24	COc1cccc(CN2CCCN(Cc3ccc(F)cc3)S2(=O)=O)c1
25	CCOC(=O)N1CCc2c(sc(N)c2C(=O)c2ccc(Cl)cc2)C1

Screen / compound no.	21	22	23	24	25
GIV Gai3 FP	96.9	104.8	101.3	105.5	109.0
Sa growth 42C	93.5	117.2	103.8	115.5	92.4
Sa growth 42C second temp	91.4	97.4	90.6	95.0	73.2
HCMV UL50-53 inh	-9.6	-14.8	x	x	-27.7

26	Cn1ccnc1SCC(=O)NCc1ccccc1
27	COc1ccc(-c2cc(C(=O)NCCN3CCCCC3)c3cccc(-c4ccc(F)cc4)c3n2)cc1
28	COc1ccccc1C(=O)NN1C(=O)/C(=C2/C(=O)N(CC(=O)O)c3ccccc32)SC1=S
29	Cc1cccc(-c2nc3cc(NC(=O)COc4ccccc4F)ccc3o2)c1
30	O=c1c2c3c(sc2[nH]c(=S)n1Cc1ccco1)CCCC3

Screen / compound no.	26	27	28	29	30
GIV Gai3 FP	x	115.3	102.4	101.9	x
Sa growth 42C	100.5	x	x	106.5	89.1
Sa growth 42C second temp	91.7	x	x	83.6	58.4
HCMV UL50-53 inh	-30.0	0.4	-6.1	4.7	-5.9

# Grouped by structure, the entries above containing four or more nitrogen atoms
3	CCC(Sc1nnc2c3ccccc3n(C(C)C)c2n1)C(=O)Nc1nc2ccccc2s1 (stereo not drawn)
11	N#Cc1c2c(c(N3CCCCC3)n3c1nc1ccccc13)CCCC2
16	CCN(C(=O)CSc1nc2cc(C(=O)OC)ccc2c(=O)n1CCN1CCOCC1)c1cccc(C)c1

Screen / compound no.	3	11	16
GIV Gai3 FP	111.0	101.1	103.5
Sa growth 42C	126.5	86.6	100.9
Sa growth 42C second temp	98.1	90.6	86.6
HCMV UL50-53 inh	-13.6	-16.9	-28.5

# Going on with the list:
31	COc1cccc(NC(=O)Nc2nnc(SCc3cc(=O)n4oc(C)cc4n3)s2)c1
32	COc1ccc(CCNC(=O)c2cc(-c3ccccn3)nc3ccccc23)cc1
33	Cc1ccc2[nH]c(-c3ccccc3)c(CN(C)C)c(=O)c2c1
34	CC1Oc2ccccc2C(=O)N(CC(=O)c2ccccc2)C1=O (stereo not drawn)
35	Cc1cccc(NC(=O)CCn2cnnn2)c1

Screen / compound no.	31	32	33	34	35
GIV Gai3 FP	107.1	x	103.6	107.7	100.8
Sa growth 42C	x	86.0	104.2	x	93.1
Sa growth 42C second temp	x	79.0	75.4	x	96.4
HCMV UL50-53 inh	-25.4	-48.0	-7.8	-1.3	-8.4

# Arranged by formula weight (ascending): some entries from above
35	Cc1cccc(NC(=O)CCn2cnnn2)c1
34	CC1Oc2ccccc2C(=O)N(CC(=O)c2ccccc2)C1=O (stereo not drawn)
32	COc1ccc(CCNC(=O)c2cc(-c3ccccn3)nc3ccccc23)cc1
31	COc1cccc(NC(=O)Nc2nnc(SCc3cc(=O)n4oc(C)cc4n3)s2)c1

Screen / compound no.	35	34	32	31
GIV Gai3 FP	100.8	107.7	x	107.1
Sa growth 42C	93.1	x	86.0	x
Sa growth 42C second temp	96.4	x	79.0	x
HCMV UL50-53 inh	-8.4	-1.3	-48.0	-25.4

# The listing picks up, starting four compounds before the break.
32	COc1ccc(CCNC(=O)c2cc(-c3ccccn3)nc3ccccc23)cc1
33	Cc1ccc2[nH]c(-c3ccccc3)c(CN(C)C)c(=O)c2c1
34	CC1Oc2ccccc2C(=O)N(CC(=O)c2ccccc2)C1=O (stereo not drawn)
35	Cc1cccc(NC(=O)CCn2cnnn2)c1
36	O=C(Nc1ccc(F)cc1)c1cnccc1C(F)(F)F
37	CC(C)CCN1CC(C)C(O)(c2ccccc2)CC1C (stereo not drawn)
38	Cc1cc(C)cc(OCC(O)Cn2c(C3CC(=O)N(C(C)(C)C)C3)nc3ccccc32)c1 (stereo not drawn)
39	COc1ccccc1C(=O)OCc1cc(=O)n2nc(C3CCCCC3)sc2n1
40	CCC(C(=O)Nc1ccccc1)n1nc(-c2cc(C)ccc2C)ccc1=O (stereo not drawn)

Screen / compound no.	32	33	34	35	36	37	38	39	40
GIV Gai3 FP	x	103.6	107.7	100.8	102.4	101.0	93.4	103.3	98.5
Sa growth 42C	86.0	104.2	x	93.1	92.0	92.9	x	117.9	106.0
Sa growth 42C second temp	79.0	75.4	x	96.4	90.9	86.8	x	90.8	86.2
HCMV UL50-53 inh	-48.0	-7.8	-1.3	-8.4	-14.9	-13.0	-9.7	x	-15.2

41	CCc1nc2nc3c(c(N4CCN(c5cc(C)ccc5C)CC4)n2n1)CCC3
42	c1ccc2c(NC3CCCC3)nc(N3CCNCC3)nc2c1
43	CC(C)(C)C1CCC(=NNC(=O)Cc2cn3ccsc3n2)CC1 (stereo not drawn)
44	CCN1C(=O)c2ccccc2S(=O)c2ccc(C(=O)N3CCN(c4cccc(Cl)c4)CC3)cc21 (stereo not drawn)
45	C=CC[N+]1(CC#Cc2ccccc2)CCOCC1

Screen / compound no.	41	42	43	44	45
GIV Gai3 FP	106.2	106.0	x	102.0	100.7
Sa growth 42C	x	125.2	96.3	102.3	94.7
Sa growth 42C second temp	x	50.6	92.3	88.4	85.2
HCMV UL50-53 inh	-7.8	-11.1	-3.6	-9.0	x

46	O=C(Nc1ccc(Cc2ccncc2)cc1)c1cc2ccccn2n1
47	Cc1cccc(Cl)c1NC(=O)N1CCCN(c2ncccc2C(F)(F)F)CC1
48	O=C(Nc1ccccc1F)OCC1CCCN2CCCCC12 (stereo not drawn)
49	CN(C)c1nc(C#N)nc(N2CCOCC2)n1
50	COCc1cc(C(=O)Nc2ccc(Cl)cc2)cc2c1OCOC2
51	CCOc1cc(CNCc2ccco2)ccc1OCc1ccccc1

Screen / compound no.	46	47	48	49	50	51
GIV Gai3 FP	102.0	105.9	x	102.0	98.0	97.5
Sa growth 42C	116.7	96.0	94.6	112.5	112.9	100.9
Sa growth 42C second temp	91.1	95.4	92.8	79.8	80.6	92.6
HCMV UL50-53 inh	x	5.4	-2.1	11.4	-3.4	0.1

# Copied from the list.
# Value of no. 39 in Sa growth 42C: 117.9
# Value of no. 23 in GIV Gai3 FP: 101.3
